High-throughput results (PubChem BioAssay)
LT uptake inh: blocks cellular internalization of anthrax lethal toxin; Potency, µM (titrated, usually from 40 µM), for the others: at the highest dose activity change, negative = inhibition, most hits filed as inhibitors; Cells, anthrax lethal toxin internalization, FRET ratio (460/530); 70,000 compounds, 0.67% hits; AID 912; active = well fitted falling ratio curve with the 530 nm signal flat; inconclusive = other ratio curves, or a change in one channel alone; inactive = flat curves in the ratio and both channels; the % refers to the ratio; further: on the % scale 0 is the no-effect control and ±100 the full control effect; nearly all actives have a fitted effect of over 50% in size; tested in ME-180 cells; beta-lactamase reporter
Prx2 Sm inh: blocks S. mansoni peroxiredoxin 2 enzymatic activity. Potency, µM. S. mansoni Prx2 activity coupled to TGR/GSH (TGR is thioredoxin glutathione reductase), NADPH fluorescence loss, qHTS; some inactives read as strong as hits. 65,000 compounds, 0.07% hits; active means full or partial inhibition curve with a strong effect at the top dose; inconclusive means weaker partial or single-point curve; inactive means no accepted curve; further: series up to 57 µM; many of its hits are not listed in these tables
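Coupled assay in which S. mansoni TGR passes NADPH reducing equivalents via glutathione to Prx2, which reduces H2O2. Compounds were preincubated 15 min at room temperature with 25 nM TGR/50 nM Prx2 mix. Kinetic NADPH fluorescence loss (ex 365/em 450 nm) was monitored.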
* = called active by the depositor; ? = inconclusive; · = no result given; & = joins results of further samples; [ ] = another dose, or the depositor's remark. Potency means the concentration at half of the fitted maximal effect.

SMILES	LT uptake inh	Prx2 Sm inh
Cc1ccc(S(=O)(=O)N2CCC(C(=O)Nc3ccc4c(c3)COC4=O)CC2)cc1	4%	>57
CCn1c(SCC(=O)N2CCc3ccccc32)nnc1-c1ccncc1	-3%	>57
Cc1cc(Oc2ccc(=O)n(C)n2)nc(Oc2ccc(=O)n(C)n2)n1	-5%	>57
Cc1nn2c(-c3ccc(Cl)cc3Cl)nnc2s1	-15%	>57
Cc1ccccc1OCCC(=O)Nc1c(C)n(C)n(-c2ccccc2)c1=O	-2%	>57
O=C(c1cccs1)N1CCCC(c2nc(-c3ccc(F)cc3)no2)C1 (stereo not given)	-18%	>57
CCOC(=O)C1CCCCN1C(=O)CCc1c(C)nc2ncnn2c1C (stereo not given)	?	>57
COC(=O)c1ccccc1NC(=O)c1ccc(COc2ccccc2)o1	?	>57
OC(CN1C2=NCCN2c2ccccc21)c1ccc(Br)cc1 (stereo not given)	-14%	>57
COc1ccc(-c2cc(C(F)(F)F)nc(N3CCN(c4ccc(F)cc4)CC3)n2)cc1OC	-11%	>57

Quoted at random: 3 records from the list.
SMILES	LT uptake inh	Prx2 Sm inh
COC(=O)c1ccccc1NC(=O)c1ccc(COc2ccccc2)o1	?	>57
Cc1cc(Oc2ccc(=O)n(C)n2)nc(Oc2ccc(=O)n(C)n2)n1	-5%	>57
Cc1ccccc1OCCC(=O)Nc1c(C)n(C)n(-c2ccccc2)c1=O	-2%	>57

New compounds follow:
SMILES	LT uptake inh	Prx2 Sm inh
C=CCN1C(=O)C2C(C(=O)NCc3ccccc3)C3C=CC2(O3)C1C(=O)NC(C)(C)C (stereo not given)	-10%	>57
CO[C@H]1COC(=O)[C@@H](CCSC)NC(=O)C/C=C\[C@@H](C)[C@H](OC)COC(=O)[C@@H](OCc2ccccc2)/C=C\[C@@H]1C	12%[8 µM]	·
CS(=O)(=O)N1CCCC(C(=O)NCc2ccccc2Cl)C1 (stereo not given)	-28%	>57
COc1ccc(OC)c(C(C(=O)NCc2ccco2)N(C(=O)Cn2nnc3ccccc32)C(C)C)c1 (stereo not given)	5%	>57
CSCCC(C(=O)O)N1C(=O)c2ccc(C(=O)O)cc2C1=O (stereo not given)	-5%	>57
CCOC(=O)c1sc2ncn(/N=C/c3ccccn3)c(=O)c2c1C	11%	>57
COc1cccc(NC(=O)Cc2cccs2)c1	6%	>57
O=C(Nc1cccc(NC(=O)C2CC3CCCC(C2)C3=O)n1)C1CC2CCCC(C1)C2=O (stereo not given)	-11%	>57
O=C(c1ccncc1)N1CCC[C@@]2(CCN(C(c3ccccc3)c3ccccc3)C2)C1	?	>57
COc1ccc(C2(C)NC(=O)N(Cc3cc(Cl)cc4c3OCOC4)C2=O)cc1OC (stereo not given)	-15%	>57
COC(=O)C1=COC(C)C2CN3CCc4c([nH]c5ccccc45)C3CC12 (stereo not given)	-15%	·
CN(C)C[C@@H](O)c1ccc(Cl)c2ccccc12	-16%[8 µM]	>57
COC(=O)c1ccc(CN(Cc2ccc(C(=O)OC)o2)C(C)(C)C)o1	-11%	>57
O=C(c1cccs1)c1no[n+]([O-])c1C(=O)c1cccs1	?	?
Cc1cccc(C2Nc3ccccc3C(=O)N2c2ccccc2)n1 (stereo not given)	-20%	·
Cc1cc(C)c2[nH]c(=O)c(C(c3nnnn3Cc3ccc4c(c3)OCO4)N3CCCC3)cc2c1 (stereo not given)	1%	>57
CCn1c(COc2ccccc2C(N)=O)nc2ccccc21	-14%	>57
COc1ccc(NC(=O)C2CCN(S(=O)(=O)c3cccnc3)CC2)cc1Cl	6%	>57
O=C(OC1CCc2ccccc2C1=O)c1ccccc1O (stereo not given)	?	>57
O=C(CCN1C(=O)c2ccccc2S1(=O)=O)Nc1ccc2c(c1)OCCO2	?	>57
Cc1ccc(/C=c2\sc3nc(-c4cccnc4)nn3c2=O)cc1	-1%	>57
CC(=O)Nc1cccc(OCC(=O)Nc2ccccc2)c1	-7%	>57
CN(C)c1ccc(-c2cncnc2NCCN2CCOCC2)cc1	?	?
CC(C)C(c1nnnn1CC1CCCO1)N1CCN(C2CCCC2)CC1 (stereo not given)	-10%	>57
CCSc1nncn1/N=C/c1ccc(OC)c(OC)c1	-10%	·
NC(=O)N1CC(O)CC1C(=O)Nc1ccc(Cl)c(Cl)c1 (stereo not given)	9%	>57
CCOC(=O)N1CCN(S(=O)(=O)c2cc3c(cc2C)NC(=O)CO3)CC1	·	>57
CC(=O)c1ccc(Nc2cc(C)nc3nc(C)nn23)cc1	2%	>57
CCOC(=O)c1ccc(N2C(=O)C3CC=C(C)CC3C2=O)cc1 (stereo not given)	-8%	·
Cn1c(O)c(C=NCCOc2ccc(Cl)cc2)c(=O)n(C)c1=O	1%	·
O=C(CSc1ccc2nnc(-c3cccnc3)n2n1)NCc1ccco1	2%	>57
Fc1ccc(C(c2nnnn2Cc2ccccc2)N2CCSCC2)cc1 (stereo not given)	-26%	>57
CSc1ccc(/C=N/n2nnnc2N)cc1	9%	>57
O=C(c1cc(-c2cccnc2)nc2ccc(Br)cc12)N1CCC2(CC1)OCCO2	9%	>57
CCn1c(COc2ccccc2)nnc1SCc1ccc(C#N)cc1	·	>57
CC(C)Nc1nc(SCC(=O)Nc2ccccc2)nc(N2CCOCC2)n1	-5%	>57
CC(=O)Nc1cc2c(cc1C(=O)C(C)C)OCCO2	?	>57
CC(C)(C)OC(=O)N1CC(O)CC1C(=O)OCC(=O)c1ccc(Cl)cc1 (stereo not given)	6%	>57
CCOC(=O)OCC1OC(C#Cc2ccc(C(C)(C)C)cc2)C=CC1OC(=O)OCC (stereo not given)	-14%[8 µM]	·
O=c1c(-c2ccccc2)nc2cncnc2n1Cc1ccccc1Cl	9%	>57
Cc1cc(C)cc(OCc2nnc(SCC(=O)OC3CCCCC3)o2)c1	-24%	>57
COc1ccc(Oc2ncc3nc(-c4cn(C)c5ccccc45)c(=O)n(CCC#N)c3n2)cc1	?	>57
O=C(NCc1ccc2c(c1)OCO2)c1ccc(-c2ccc(Cl)cc2)o1	?	>57
COc1ccc(S(=O)(=O)N(C)CC(=O)NC2CC2)cc1	·	>57
NC(=O)c1oc2ccc(Cl)cc2c1NC(=O)CN1CCOCC1	2%	>57
FC(F)(F)c1ccccc1-n1ccnc1	?	>57&>26
CCC(C(=O)Nc1cnccn1)c1ccccc1 (stereo not given)	·	>57
COCC(C)NC(=O)c1cc(-c2ccc(O)cc2)on1 (stereo not given)	-6%	>57
O=C1CC(c2ccc(F)cc2)Cc2nc(N3CCN(c4ccccc4)CC3)ncc21 (stereo not given)	·	>57
O=C(CCCCn1c(=O)c2ccccc2n(Cc2ccc(F)cc2Cl)c1=O)NCc1ccco1	6%	>57

In a second layout: entries from further up
molecule | LT uptake inh | Prx2 Sm inh
Cc1ccc(S(=O)(=O)N2CCC(C(=O)Nc3ccc4c(c3)COC4=O)CC2)cc1 | 4% | >57
CCn1c(SCC(=O)N2CCc3ccccc32)nnc1-c1ccncc1 | -3% | >57
Cc1cc(Oc2ccc(=O)n(C)n2)nc(Oc2ccc(=O)n(C)n2)n1 | -5% | >57
Cc1nn2c(-c3ccc(Cl)cc3Cl)nnc2s1 | -15% | >57
Cc1ccccc1OCCC(=O)Nc1c(C)n(C)n(-c2ccccc2)c1=O | -2% | >57
O=C(c1cccs1)N1CCCC(c2nc(-c3ccc(F)cc3)no2)C1 (stereo not given) | -18% | >57
CCOC(=O)C1CCCCN1C(=O)CCc1c(C)nc2ncnn2c1C (stereo not given) | ? | >57
COC(=O)c1ccccc1NC(=O)c1ccc(COc2ccccc2)o1 | ? | >57
OC(CN1C2=NCCN2c2ccccc21)c1ccc(Br)cc1 (stereo not given) | -14% | >57
COc1ccc(-c2cc(C(F)(F)F)nc(N3CCN(c4ccc(F)cc4)CC3)n2)cc1OC | -11% | >57
C=CCN1C(=O)C2C(C(=O)NCc3ccccc3)C3C=CC2(O3)C1C(=O)NC(C)(C)C (stereo not given) | -10% | >57
CO[C@H]1COC(=O)[C@@H](CCSC)NC(=O)C/C=C\[C@@H](C)[C@H](OC)COC(=O)[C@@H](OCc2ccccc2)/C=C\[C@@H]1C | 12%[8 µM] | ·
CS(=O)(=O)N1CCCC(C(=O)NCc2ccccc2Cl)C1 (stereo not given) | -28% | >57
COc1ccc(OC)c(C(C(=O)NCc2ccco2)N(C(=O)Cn2nnc3ccccc32)C(C)C)c1 (stereo not given) | 5% | >57
CSCCC(C(=O)O)N1C(=O)c2ccc(C(=O)O)cc2C1=O (stereo not given) | -5% | >57
CCOC(=O)c1sc2ncn(/N=C/c3ccccn3)c(=O)c2c1C | 11% | >57
COc1cccc(NC(=O)Cc2cccs2)c1 | 6% | >57
O=C(Nc1cccc(NC(=O)C2CC3CCCC(C2)C3=O)n1)C1CC2CCCC(C1)C2=O (stereo not given) | -11% | >57
O=C(c1ccncc1)N1CCC[C@@]2(CCN(C(c3ccccc3)c3ccccc3)C2)C1 | ? | >57
COc1ccc(C2(C)NC(=O)N(Cc3cc(Cl)cc4c3OCOC4)C2=O)cc1OC (stereo not given) | -15% | >57
COC(=O)C1=COC(C)C2CN3CCc4c([nH]c5ccccc45)C3CC12 (stereo not given) | -15% | ·
CN(C)C[C@@H](O)c1ccc(Cl)c2ccccc12 | -16%[8 µM] | >57
COC(=O)c1ccc(CN(Cc2ccc(C(=O)OC)o2)C(C)(C)C)o1 | -11% | >57
O=C(c1cccs1)c1no[n+]([O-])c1C(=O)c1cccs1 | ? | ?
Cc1cccc(C2Nc3ccccc3C(=O)N2c2ccccc2)n1 (stereo not given) | -20% | ·
Cc1cc(C)c2[nH]c(=O)c(C(c3nnnn3Cc3ccc4c(c3)OCO4)N3CCCC3)cc2c1 (stereo not given) | 1% | >57
CCn1c(COc2ccccc2C(N)=O)nc2ccccc21 | -14% | >57

Continued.
SMILES	LT uptake inh	Prx2 Sm inh
CCCCCOC(=O)CSc1nnc(-c2cc(OC)c(OC)c(OC)c2)o1	-8%	>57
O=C(NC1CCCCC1)N(Cc1nc2ccccc2c(=O)[nH]1)C1CCCCC1	-7%	>57
O=c1[nH]cnc2nc(-c3ccccc3)c(-c3ccccc3)nc12	3%	>57
COCCNC(=O)C(c1ccc(C)o1)N(C(=O)c1snc(C(N)=O)c1N)c1ccc(C)c(C)c1 (stereo not given)	6%	>57
COc1ccccc1-n1c(C)nnc1SCC(N)=O	?	>57
O=C(Nc1ccc(S(=O)(=O)N2CCCCCC2)cc1)c1ccc(Br)o1	1.6µM*	>57
CC(=O)Nc1ccc(NC(=O)CCC(=O)NCCO)cc1	2%	·
Cn1c(=O)c2cc(S(=O)(=O)NCCC(=O)NCCC3=CCCCC3)ccc2n(C)c1=O	3%	>57

Given with two lines to a compound: 2 of the compounds above
Results follow in this order: LT uptake inh, Prx2 Sm inh
O=C(Nc1ccc(S(=O)(=O)N2CCCCCC2)cc1)c1ccc(Br)o1
    1.6µM*, >57
O=C(Nc1cccc(NC(=O)C2CC3CCCC(C2)C3=O)n1)C1CC2CCCC(C1)C2=O (stereo not given)
    -11%, >57

Some of the compounds tested, so the mix of outcomes need not match the whole.
